# Bfl-1 A1 inh: inhibitors of the anti-apoptotic protein A1, read as caspase activation | MEF A1-2A-BIM cells, Caspase-Glo 3/7 luminescence, 3 h; percent of clofoctol response, vehicle zero | AID 2462 | 0.066% of 330,000 active | caspase activation, % (concentration not given with the values);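 active = over half of replicate activation scores above 10%, or exactly half above 10 with the replicate mean above 10; inconclusive = replicate mean below 10 yet half the replicates above 10; inactive = over half of replicates below 10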;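 note: wells of about 30 µL received 50 nL stock; many hits fall short of the cut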
# T cruzi repl: blocks replication of Trypanosoma cruzi; inhibition, % (test concentration not listed); 1.4% of 300,000 active; T. cruzi beta-gal in NIH3T3, luminescence, 90 h;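 active = mean inhibition across valid replicates above about 55%, limit read from the data; inconclusive = mean below that limit but half or more replicates reach it; inactive = mean below it, under half of replicates reach it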;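 note: signal also drops with host cell toxicity which is not excluded here; 0% = plate median of DMSO wells and 100% = zero luminescence signal; higher percent means less beta-gal luminescence so fewer parasites; stock transfer was 50 nL into about 50 µL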
# Vif TR-FRET: HIV-1 Vif–A3G interaction blockers – biochemical, TR-FRET, GST-Vif 1-94, biotin-A3G peptide, dose response retest, primary screen (AID 1117319); one-dose inhibition, %; IC50 in µM for titrated hits; TR-FRET GST-Vif / biotin-A3G peptide binding; higher % means a stronger effect; test concentration not given here; strong numbers were not always called active; 0.57% of 260,000 active;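 active = above the screen mean plus three standard deviations and confirmed in dose response; inconclusive = results disagree or hit not tested in dose response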;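 note: Vif residues 1-94 fused to GST binding biotinylated APOBEC3G peptide 110-148; 0% = full assay without inhibitor and 100% = GST in place of GST-Vif; retest series ran down from 100 µM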
# RanGTP-Impb inh: disruptors of Ran-importin-beta complex formation – biochemical, FRET, CFP-Ran, YFP-importin-beta, homogeneous, primary screen. inhibition, % (no concentration beside the values). 1.1% of 300,000 active. cell-free CFP-Ran/YFP-importin-beta FRET ratio. AID 2216;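 active = most replicates above 15%; inconclusive = exactly half above 15%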;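 note: 0% = DMSO wells and 100% = Ran loaded with GDP instead of GTP; wells of about 40 µL received 100 nL stock; the first replicate is given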
# Beta apoptosis: beta cell apoptosis inhibition | 0.8% of 300,000 active | protection from apoptosis, % (test concentration not listed) | AID 435005 | INS-1E cytokine-induced death, ATP luminescence, 48 h; percent of positive-control rescue, neutral wells zero;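 active = all replicates at 75% or more, or half of them and the mean; inconclusive = half reach 75% but not the mean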;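 note: 0% = cytokine-treated negative control wells and 100% = positive control rescue; higher means more ATP so stronger rescue from cytokine killing; wells of about 40 µL received 100 nL stock; the first replicate is given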
# Calb FLC: affects C. albicans growth with fluconazole | C. albicans CaCi-2 (fluconazole-resistant clinical isolate) + fluconazole, Alamar Blue growth, 48 h | 0.57% of 300,000 active | growth inhibition, % (test concentration not listed);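 active = most replicates above 75%; inconclusive = exactly half above 75%; inactive = most below 75%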;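 note: all wells also contain fluconazole at 8 µg/ml as a sub-toxic cotreatment; 0% = median of DMSO wells and 100% = median of geldanamycin control wells; wells of about 8 µL received 7.5 nL stock; the first replicate is given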
# MLL AF4-AF9 inh: blocks AF4 peptide binding to human AF9 | AlphaScreen, biotin-AF4 peptide binding to FLAG-AF9 | 0.47% of 350,000 active | P42568 | inhibition, % at 10 µM;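 active = every replicate reaching a set inhibition limit, whatever the replicate mean, cut at about 25% in these data; inconclusive = mean inhibition reaches that limit but some replicates miss it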;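 note: 0% = plate neutral control median and 100% = total signal loss; the record names both 10 and 1 µM as test concentration; the first replicate is given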
# Target sequence (P42568 whole entry, looked up): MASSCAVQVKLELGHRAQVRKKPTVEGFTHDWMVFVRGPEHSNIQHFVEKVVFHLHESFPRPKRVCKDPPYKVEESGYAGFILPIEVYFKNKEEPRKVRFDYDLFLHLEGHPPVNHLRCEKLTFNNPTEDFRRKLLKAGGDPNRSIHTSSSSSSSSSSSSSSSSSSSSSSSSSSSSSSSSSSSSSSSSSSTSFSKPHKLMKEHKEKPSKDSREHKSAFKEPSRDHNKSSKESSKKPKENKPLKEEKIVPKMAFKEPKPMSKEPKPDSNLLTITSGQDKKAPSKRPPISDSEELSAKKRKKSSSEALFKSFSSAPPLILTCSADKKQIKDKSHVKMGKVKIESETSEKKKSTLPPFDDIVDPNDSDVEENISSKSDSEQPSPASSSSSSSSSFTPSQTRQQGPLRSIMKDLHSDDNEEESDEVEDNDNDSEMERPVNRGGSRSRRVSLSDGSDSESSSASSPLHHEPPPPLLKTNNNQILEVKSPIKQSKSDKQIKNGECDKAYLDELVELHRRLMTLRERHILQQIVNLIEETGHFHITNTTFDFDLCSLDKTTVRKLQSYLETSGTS
# LANA-H2B inh: blocks KSHV LANA binding to histone H2A/H2B; Q9QR71; cell-free LANA-H2A/H2B peptide, fluorescence polarization; inhibition, % (concentration not given with the values); 0.6% of 320,000 active; AID 2629; in the data active = inhibition mostly above about 10%, no sharp cut-off; inactive = mostly below about 6.7%;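 note: stock transfer was 7.5 nL into about 10 µL; 0% = median of vehicle wells and 100% = median of positive control wells; one replicate is shown; the record names a cut of 25% in any replicate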
# An asterisk follows results filed as active; ? = inconclusive; . = no result given; & = joins results of further samples. The list is partial. The share of hits here may be higher or lower than overall.
# The first 3 entries, ahead of the listing:
smiles	Bfl-1 A1 inh	T cruzi repl	Vif TR-FRET	RanGTP-Impb inh	Beta apoptosis	Calb FLC	MLL AF4-AF9 inh	LANA-H2B inh
COc1ccc(CCn2c(O)c(C=NCCCn3ccnc3)c(=O)[nH]c2=O)cc1OC	0.0	-21	7%	-3.5	-2	3	.	2.7
Cc1ccc(C(O)(C(=O)NNC(=O)CN2CCN(C)CC2)c2ccc(C)cc2)cc1	0.1	-39	3%	2.6	-6	11	-0.3	-1.2
CC(C)(C)NC(=O)NC(=O)CN1CC=C(c2ccccc2)CC1	0.4	-2	7%	.	-3	-2	-6.7	0.8

# All compounds of this part, repeating the preview:
smiles	Bfl-1 A1 inh	T cruzi repl	Vif TR-FRET	RanGTP-Impb inh	Beta apoptosis	Calb FLC	MLL AF4-AF9 inh	LANA-H2B inh
COc1ccc(CCn2c(O)c(C=NCCCn3ccnc3)c(=O)[nH]c2=O)cc1OC	0.0	-21	7%	-3.5	-2	3	.	2.7
Cc1ccc(C(O)(C(=O)NNC(=O)CN2CCN(C)CC2)c2ccc(C)cc2)cc1	0.1	-39	3%	2.6	-6	11	-0.3	-1.2
CC(C)(C)NC(=O)NC(=O)CN1CC=C(c2ccccc2)CC1	0.4	-2	7%	.	-3	-2	-6.7	0.8
COC(=O)C1=C(c2c(C)noc2C)C[C@@H]2CC[C@H]1N2C(=O)NCC1CC1	0.1	.	.	.	-3	.	-2.8	-3.1
CCOC(=O)C(O)(c1ccc(N=Cc2ccccc2O)c(C)c1)C(F)(F)F (centres undefined)	0.4	-6	0%	2.8	-5	-13	0.1	2.8
Oc1ccc(CC2CC3CCN2CC3)cc1O (centres undefined)	0.5	15	?	-1.4	5	-25	.	-4.6
Cn1cc(C(=O)OCC(=O)NC2CCCC2)c2ccccc21	1.3	.	4%	.	-1	.	-7.2	4.2
CCC(=NCCCN1CCOCC1)c1c(O)n(-c2ccccc2C)c(=O)[nH]c1=O	0.3	1	-5%	5.0	0	15	0.3	-3.9
COc1ccc(/C=N\N=C(N)N)cc1	0.3	62*	2%	-0.9	-1	7	-2.4	3.3
O=C(c1c[nH]cc1-c1ccccc1)c1cccc2ccccc12	1.3	58*	-8%	2.9	-1	0	.	2.0
CC[C@@]1(O)C(=O)OCc2c1cc1n(c2=O)Cc2cc3c(NC(=O)CN)cccc3nc2-1	-0.4	-33	3%	5.1	71	5	-1.6	-1.0
CC(=O)Nc1ccc2c(c1)CC1(C(=O)N(C)C(=O)N(C)C1=O)C1CCCN21 (centres undefined)	0.1	-9	25%	-9.8	-4	3	.	9.6
CCC(=NCc1cccnc1)c1c(O)n(Cc2ccccc2)c(=O)[nH]c1=O	0.3	-10	4%	.	5	-6	.	-1.0
COc1cccc(-n2c(CN3CCN(C)CC3)nc3ccc([N+](=O)[O-])cc3c2=O)c1	-0.4	12	.	3.1	6	7	4.3	2.2
CC1(C)CC(Nc2ccc(Nc3ccccc3)cc2)CC(C)(C)N1	1.5	65*	7.1µM*	-1.5	25	0	76*	2.7
Clc1cccc(CN2CCCCC2c2cccnc2)c1 (centres undefined)	-0.2	51	.	-0.5	-9	-6	-23	-4.1
O=C(O)c1cccc(NC(=O)N2C[C@H]3C[C@@H](C2)c2cccc(=O)n2C3)c1	0.1	-8	.	?	.	-8	0.3	-5.5
COC(=O)C(C)Oc1cc(C)cc2oc(=O)c3c(c12)CCC3 (centres undefined)	0.0	4	24%	-0.6	0	-5	.	2.1
NS(=O)(=O)OC(CCc1ccccc1)C(Cl)(Cl)Cl (centres undefined)	-0.9	-11	.	2.8	-8	-22	?	-5.7
N#CC(c1cccnc1)N1CCOCC1 (centres undefined)	0.5	2	-18%	0.7	-5	-5	3.8	-2.1
COC(=O)C1=C(c2ccc(OC(F)(F)F)cc2)C[C@@H]2CC[C@H]1N2C(=O)NCCOc1ccc(OC)cc1	-0.5	.	.	.	-5	.	1.3	-1.1
O=C1NC2NC(=O)N([N+](=O)[O-])C2N1 (centres undefined)	0.6	1	.	-1.4	0	-2	1.0	-5.2
Cc1cc(OCC(=O)N2CCCN(C)CC2)ccc1Cl	0.7	16	7%	4.4	.	7	-13	3.9
O=C1CN=C(c2ccccc2F)c2cc(Cl)ccc2N1	-0.1	-28	?	8.5	-4	.	5.7	-20&-0.4
Cc1ccc(CS(=O)(=O)Cc2ccc(C(=O)N3CCC4(CC3)OCCO4)o2)cc1	0.4	-7	-4%	3.3	-5	-16	1.3	-0.1
CSc1ccccc1C(=O)C1CCCN(Cc2ccccn2)C1 (centres undefined)	1.0	5	2%	0.7	-1	-3	2.8	-2.7
C=CCn1c(O)c(C(CC)=NCCc2c[nH]c3ccccc23)c(=O)[nH]c1=O	0.1	20	1%	6.2	14	26	-1.0	2.4
Cc1ccccc1-n1c(O)c(/C=N/NC(=O)c2ccncc2)c(=O)[nH]c1=O	-0.1	-11	11%	4.4	-5	2	1.9	-4.7
CCOC(=O)C(NC(C)=O)C(OC(C)=O)c1cccc(N(CCCl)CCCl)c1 (centres undefined)	0.0	-6	?	4.2	13	6	.	3.9
FC(F)(F)c1cccc(C2NCc3ccccc3-n3cccc32)c1 (centres undefined)	0.4	13	.	0.2	1	-2	16	-3.8

# Next compounds follow.
smiles	Bfl-1 A1 inh	T cruzi repl	Vif TR-FRET	RanGTP-Impb inh	Beta apoptosis	Calb FLC	MLL AF4-AF9 inh	LANA-H2B inh
COC(=O)C1=C(c2cc3ccccc3o2)C[C@@H]2CC[C@H]1N2C(=O)NCc1ccccc1	0.9	-3	.	3.4	-19	3	8.8	-4.5
COc1cccc(-n2c(O)c(C=NCCN3CCNCC3)c(=O)[nH]c2=S)c1	0.4	-8	.	0.6	-2	-7	-1.6	-2.3
Cc1cccnc1NC1=NCC(C)S1 (centres undefined)	0.0	-18	-2%	-0.5	.	-8	.	-0.9
C[C@]12CCC(=O)CC1CCC1C2CC[C@]2(C)C(OC(=O)CCC(=O)O)CCC12 (some centres undefined)	0.5	-10	-5%	-2.2	2	1	-0.8	-4.5
CCCC1C(C#N)=C(N)Oc2c1c(=O)oc1ccccc21 (centres undefined)	1.3	-16	-5%	2.1	-1	-8	.	1.7
O/N=C/c1c[nH]c2ccccc12	-0.3	-6	0%	2.9	-6	1	.	-1.1
O=C1CC(=O)N(c2ccc(Cl)cc2Cl)C(=O)N1	-0.4	-13	9%	?	5	14	.	-4.4
COc1ccc(OC)c(C(O)C2CCCCN2)c1 (centres undefined)	-0.6	4	3%	0.8	1	-4	1.3	-1.0
CO[C@H]1C=C2CCN(C)[C@H]2C2c3cc4c(cc3C(=O)O[C@@H]21)OCO4 (some centres undefined)	1.0	.	.	.	1	.	1.3	6.7
COCCCNC(=O)c1c(NC(=O)c2ccco2)n(Cc2ccccc2)c2nc3ccccc3nc12	0.0	23	20%	44*	-13	3	.	-7.2
CCC1=Nc2cc(C(=O)N3CCC4(CC3)OCCO4)ccc2Sc2ccc(Br)cc21	0.0	-5	.	2.6	-2	18	18	0.9
CC(=NCC1CCCO1)c1c(O)n(Cc2ccccc2)c(=O)[nH]c1=O (centres undefined)	-0.1	-13	-3%	-1.5	-3	-26	.	-2.6
C[n+]1c(-c2ccccc2)cc(-c2ccc(O)cc2)cc1-c1ccccc1	1.2	43	4%	-4.8	-6	-15	?	17
Cc1ccccc1NC(=O)CCl	0.7	-19	4%	3.5	2	0	-5.6	-2.4
CC12CN3CCN(CC(C3)C1O)C2 (centres undefined)	1.0	-9	4%	?	.	-3	.	1.6
C[N+](C)(N)CCOC(=O)C(O)(c1ccccc1)C1CCCCC1 (centres undefined)	0.6	.	.	0.4	1	4	-3.2	6.6
C=C1C[C@@H]2[C@H](CC[C@]3(C)C(=O)CC[C@@H]23)[C@@]2(C)C=CC(=O)C=C12	-0.1	0	1%	4.2	.	9	.	4.2
Cc1ccc(OCC(=O)Nc2ccc(Cl)cc2C(=O)c2ccccc2)cc1	0.1	6	0%	?	5	-4	.	2.6
O=C1NC(=O)C(CCc2ccncc2)(Cc2cccc(Cl)c2Cl)C(=O)N1c1ccc(Br)cc1 (centres undefined)	-0.1	-26	?	5.9	-2	54	.	-1.8
CCCCCn1c(=O)c(C(=O)Nc2cccc(C)c2)c(O)c2ccccc21	1.7	4	.	4.0	1	-14	-3.7	-3.5
CCn1c(O)c(C=NCc2ccccc2)c(=O)[nH]c1=S	-0.4	-16	-21%	1.1	-2	-7	-5.3	1.5
CCCCCn1c(=O)c(C(=O)Nc2ccccc2C)c(O)c2ccccc21	0.6	-1	.	2.1	.	-3	-2.6	-2.2
CN1CCC(O)(c2ccccc2)C2CCCC21 (centres undefined)	-1.0	-2	5%	2.1	3	-11	2.9	-6.5
COc1ccc(CNC(=O)/C=C/c2ccc3[nH]cc(CCN(C)C)c3c2)cc1	1.0	25	-6%	-2.3	3	-4	13	3.3
O=C(OC1CCN(CCCl)CC1)C(c1ccccc1)c1ccccc1	-0.2	.	.	.	-5	.	2.4	-4.7
Cc1c(C(=O)C(=O)N2CCOCC2)c2ccccc2n1Cc1ccccc1	.	9	.	7.4	.	2	-0.5	.
CC1OC(NCCc2ccccc2)C(O)C(O)C1O (centres undefined)	0.1	1	13%	7.6	-4	-14	.	3.9
O=C(Cc1ccccc1)N1CCN(CC2CC=CCC2)CC1 (centres undefined)	1.6	12	?	?	-2	6	.	-0.1
O=C1C2CCCN2C(c2cccnc2)N1c1ccc(Cl)c(Cl)c1 (centres undefined)	1.4	34	2%	-2.7	-7	-10	.	2.1
Cn1cc(C(=O)OCC(=O)N2CCCCC2)c2ccccc21	1.4	.	19%	.	-3	.	0.1	-1.5

# Additional compounds.
smiles	Bfl-1 A1 inh	T cruzi repl	Vif TR-FRET	RanGTP-Impb inh	Beta apoptosis	Calb FLC	MLL AF4-AF9 inh	LANA-H2B inh
O=C(c1cccc(C(F)(F)F)c1)C1CCCN(Cc2ccccc2O)C1 (centres undefined)	0.9	21	2%	0.8	0	3	-2.3	-2.0
CCNCC1(c2ccc(OC)c(OC)c2)CCCC1	0.5	-16	-1%	60*	-9	-24	.	1.9
CN1CC(C(=O)c2ccc(Cl)cc2)C(c2ccc(N(C)C)cc2)C1 (centres undefined)	1.0	23	-6%	-2.2	4	-24	40*	-0.3
NCCc1ccc(S(N)(=O)=O)cc1	-0.1	-9	7%	-4.1	-12	-2	-1.2	3.8
CCOc1cc(CNCCc2c[nH]c3ccccc23)cc(Cl)c1OC	-1.5	5	0%	-2.5	11	9	17	-1.7
CC[N+](C)(CC)CCCOC(=O)C(O)(c1ccccc1)C1CCCCC1 (centres undefined)	-0.4	-15	-1%	?	3	7	.	3.6
Cc1ccc(C2=NC(C)(C)N3C2C3c2ccc([N+](=O)[O-])cc2)cc1 (centres undefined)	0.2	0	0%	-1.8	-6	0	.	-0.2
CCCCc1ccc(NC2=NCCCS2)cc1	0.2	18	.	-0.2	2	-18	6.2	3.3

# Assay outcomes as filed in PubChem BioAssay.
